Compound activity deposited in PubChem BioAssay by Broad Institute.
ALR inh: blocks human ALR sulfhydryl oxidase activity. P55789. purified ALR, DTT oxidation, H2O2 HRP-luminol luminescence. inhibition, % (test concentration not listed). hit rate 3.8% among 290,000. AID 485317;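 active = mean and each replicate at 75% or more; inconclusive = only one of the two met; inactive = neither met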;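 note: stock transfer was 7.5 nL into about 7.5 µL; 0% = neutral wells and 100% = wells with inactivated enzyme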
Target sequence (P55789 whole entry, looked up): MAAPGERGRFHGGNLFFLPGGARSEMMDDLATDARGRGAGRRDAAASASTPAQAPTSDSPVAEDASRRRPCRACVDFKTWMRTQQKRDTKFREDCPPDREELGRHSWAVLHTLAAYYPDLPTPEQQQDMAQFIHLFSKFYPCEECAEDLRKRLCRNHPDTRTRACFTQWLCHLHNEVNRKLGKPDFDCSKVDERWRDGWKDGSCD
T cruzi inh: blocks replication of Trypanosoma cruzi. T. cruzi beta-gal in NIH3T3, luminescence, 90 h. inhibition, % (no concentration beside the values). hit rate 1.4% among 300,000;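 active = mean inhibition across valid replicates above about 55%, limit read from the data; inconclusive = mean below that limit but half or more replicates reach it; inactive = mean below it, under half of replicates reach it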;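 note: signal also drops with host cell toxicity which is not excluded here; 0% = plate median of DMSO wells and 100% = zero luminescence signal; higher percent means less beta-gal luminescence so fewer parasites; stock transfer was 50 nL into about 50 µL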
rRNA inh HTS: inhibitors of bacterial rRNA selective over humanized ribosomes. E. coli WT GFP vs humanized-ribosome RFP mutants, fluorescence, 24 h; stronger effect = lower value; DMSO median 0, no signal -100. GFP signal change (wild-type ribosome), % (test concentration not listed). hit rate 1.6% among 350,000;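 active = significant combined selectivity score with lowered wild-type GFP, culture density cut under 30%, mutant RFP and density less affected; inactive = any of these conditions unmet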; note: one replicate is shown; some compounds called inactive have numbers as strong as hits
FGF22 binding: shifts melting point of recombinant human FGF22 | Q9HCT0 | recombinant FGF22 thermal shift, SYPRO orange fluorescence; percent of sucrose octasulfate shift, DMSO zero | calls only at 9.99 µM | hit rate 1.5% among 340,000;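 active = melting point raised past a set limit in the mean and every replicate; inconclusive = no clear call; three in four hits are not shown here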
Target sequence (Q9HCT0 whole entry, looked up): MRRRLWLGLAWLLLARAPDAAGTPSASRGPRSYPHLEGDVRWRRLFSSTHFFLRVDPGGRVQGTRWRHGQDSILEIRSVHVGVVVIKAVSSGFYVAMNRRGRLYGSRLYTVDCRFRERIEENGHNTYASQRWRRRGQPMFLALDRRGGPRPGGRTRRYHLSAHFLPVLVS
RanGTP-Imp inh: inhibitors of RanGTP-importin-beta interaction, primary screen, biochemical, FRET, CFP-Ran, YFP-importin-beta, homogeneous. cell-free CFP-Ran/YFP-importin-beta FRET ratio. hit rate 1.1% among 300,000. inhibition, % (concentration not given with the values);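 active = most replicates above 15%; inconclusive = exactly half above 15%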;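 note: 0% = DMSO wells and 100% = Ran loaded with GDP instead of GTP; wells of about 40 µL received 100 nL stock; the first replicate is given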
Beta apoptosis: beta cell apoptosis inhibition; hit rate 0.8% among 300,000; AID 435005; protection from apoptosis, % (no concentration beside the values); INS-1E cytokine-induced death, ATP luminescence, 48 h; percent of positive-control rescue, neutral wells zero;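 active = all replicates at 75% or more, or half of them and the mean; inconclusive = half reach 75% but not the mean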;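 note: 0% = cytokine-treated negative control wells and 100% = positive control rescue; higher means more ATP so stronger rescue from cytokine killing; wells of about 40 µL received 100 nL stock; the first replicate is given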
AF4-AF9 inh: MLL-AF4/AF9 protein interaction inhibition | P42568 | AlphaScreen, biotin-AF4 peptide binding to FLAG-AF9 | inhibition, % at 10 µM | hit rate 0.47% among 350,000;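 active = every replicate reaching a set inhibition limit, whatever the replicate mean, cut at about 25% in these data; inconclusive = mean inhibition reaches that limit but some replicates miss it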;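 note: 0% = plate neutral control median and 100% = total signal loss; the record names both 10 and 1 µM as test concentration; the first replicate is given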
Target sequence (P42568 whole entry, looked up): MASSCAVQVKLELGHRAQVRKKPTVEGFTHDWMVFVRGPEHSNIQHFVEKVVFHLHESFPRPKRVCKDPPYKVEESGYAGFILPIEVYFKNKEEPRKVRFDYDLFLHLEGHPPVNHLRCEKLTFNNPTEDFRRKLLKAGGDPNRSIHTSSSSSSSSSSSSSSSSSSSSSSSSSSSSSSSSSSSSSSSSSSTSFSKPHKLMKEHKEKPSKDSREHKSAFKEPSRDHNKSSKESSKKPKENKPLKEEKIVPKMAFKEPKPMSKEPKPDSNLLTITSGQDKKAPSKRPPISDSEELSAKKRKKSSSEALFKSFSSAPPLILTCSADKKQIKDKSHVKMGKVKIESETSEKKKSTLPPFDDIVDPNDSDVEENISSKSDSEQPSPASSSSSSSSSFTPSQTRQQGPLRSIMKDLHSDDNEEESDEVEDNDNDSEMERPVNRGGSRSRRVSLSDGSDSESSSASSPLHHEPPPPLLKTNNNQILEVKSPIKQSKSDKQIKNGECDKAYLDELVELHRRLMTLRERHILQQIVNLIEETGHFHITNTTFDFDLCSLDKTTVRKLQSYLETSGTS
Calb FLC: C. albicans growth modulation with fluconazole | C. albicans CaCi-2 (fluconazole-resistant clinical isolate) + fluconazole, Alamar Blue growth, 48 h | growth inhibition, % (concentration not given with the values) | hit rate 0.57% among 300,000;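 active = most replicates above 75%; inconclusive = exactly half above 75%; inactive = most below 75%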;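 note: all wells also contain fluconazole at 8 µg/ml as a sub-toxic cotreatment; 0% = median of DMSO wells and 100% = median of geldanamycin control wells; wells of about 8 µL received 7.5 nL stock; the first replicate is given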
rRNA inh HTS OD600: second read-out of rRNA inh HTS, no call of its own (marks repeat the call); OD600 change, %; measured here: OD600 growth;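 optical density of the mix in the first replicate; 0 = DMSO median and -100 = no signal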
rRNA inh HTS RFP: recorded beside rRNA inh HTS, whose call it bears; RFP signal change, %; measured here: RFP humanized mutant strains;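 first replicate; 0 = DMSO median and -100 = no signal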
* = called active by the depositor; i = inactive; ? = inconclusive; · = no result given.

SMILES	ALR inh	T cruzi inh	rRNA inh HTS	rRNA inh HTS OD600	rRNA inh HTS RFP	FGF22 binding	RanGTP-Imp inh	Beta apoptosis	AF4-AF9 inh	Calb FLC
Cc1nc2ncnn2c(C)c1Cc1ccccc1Cl	-3.4	0.0	-4.0	-9.8	-2.3	i	8.4	·	2.6	7.1
COc1ccc(NC(=O)N2CCCC(CCC(=O)N(C)CCc3ccccn3)C2)cc1 (stereo not given)	-6.0	24.6	8.7	3.6	1.7	i	-0.6	-1.8	-0.4	-3.1
COC(=O)C1=NN(C(=O)c2ccccc2)C(O)(c2ccc([N+](=O)[O-])cc2)C1 (stereo not given)	?	-4.8	0.4	-0.7	-2.7	i	1.4	-1.3	2.0	-2.8
CCc1nnc(NS(=O)(=O)c2ccc(NC(=S)NC(=O)c3ccc(OC)c(OC)c3)cc2)s1	52.0	-3.5	-18.0	-26.8	1.5	·	?	-6.2	-1.9	8.7
COc1ccc(NC(=O)Cn2c([N+](=O)[O-])cnc2C)cc1Cl	-51.0	0.1	9.0	8.5	10.4	i	0.4	-8.4	-0.8	4.7
COc1ccc(S(=O)(=O)NC(C)C(=O)Nc2ccccc2C(F)(F)F)cc1 (stereo not given)	-9.4	-3.9	·	·	·	·	-2.6	-5.7	·	-2.6
Cn1c(=O)n(C)c2cc(NS(=O)(=O)c3ccc(Br)s3)ccc21	9.4	10.7	-11.2	-21.8	-9.1	i	2.1	-7.1	-1.7	-6.6
COCC(=O)N(CCc1ccc(OC)cc1)Cc1nc2ccccc2c(=O)[nH]1	-5.8	-8.8	·	·	·	·	-3.0	-6.3	·	-2.1
C/C(=N\N=C(N)N)c1cccc(Cl)c1	-1.1	3.6	4.7	-0.2	-4.9	i	-1.7	-2.5	-1.6	-3.4
CCN(Cc1ccccc1)C(=O)C1CCN(Cc2sccc2C)CC1	-9.7	-6.7	·	·	·	·	3.8	-7.4	·	-1.4
CCOC(=O)c1csc(NC(=O)c2ccc(N3C(=O)CCC3=O)cc2)n1	-5.8	-13.0	·	·	·	i	1.1	·	-1.7	-5.7
O=C(Nc1ccc2[nH]ncc2c1)c1ccccc1Br	47.1	-6.1	6.4	7.1	3.1	i	0.0	3.4	8.1	0.0
O=C(Nn1cnnc1)c1cc2c(s1)CCCC2	-32.7	-10.0	·	·	·	·	3.3	-6.4	·	10.6
COc1ccc(CC(NC(C)=O)C(=O)NC2CCN(c3nnnn3-c3ccccc3)CC2)cc1 (stereo not given)	0.2	-11.7	·	·	·	·	3.1	-10.7	·	-2.2
CC(C)Cn1cc(C(=O)N2CCC(C)CC2)c2c3ccccc3n(C)c2c1=O	-13.2	40.9	-11.2	4.8	5.6	i	6.5	1.4	5.0	1.6
O=C(O)c1cccc(Nc2nc(Nc3ccccc3)nc(N3CCCC3)n2)c1	94.5*	-6.2	13.5	7.7	1.2	i	-3.3	-2.1	1.6	43.5
CC1CN(c2ncnc3c2oc2ccccc23)CC(C)O1 (stereo not given)	-5.4	-4.5	·	·	·	·	3.0	-3.2	·	58.0
O=C1CC(C(=O)N2CCCc3ccccc32)CN1c1ccc(Cl)cc1 (stereo not given)	-20.8	2.5	-27.0	-24.4	-9.8	i	9.1	-3.9	0.0	9.6
CC(C)(C)c1cc(OC(=O)c2ccccc2F)ccc1O	-0.2	-9.2	-52.0	-80.5	-13.8	i	?	-4.6	5.0	17.2
COc1ccc(N(CC(=O)Nc2c(C)n(C)n(-c3ccccc3)c2=O)S(=O)(=O)c2ccc(F)cc2)cc1	-1.9	2.0	1.0	0.9	-3.5	i	1.3	-2.7	4.5	2.3
CCOC(=O)c1cnc2c(cnn2C)c1NCCCN(C)C	2.5	-17.4	·	·	·	·	3.2	-4.7	·	?
CC(C)(C)c1ccc(NC(=O)C2CCCN(c3cnccn3)C2)cc1 (stereo not given)	-7.7	33.8	-2.1	-32.5	-3.5	i	-0.2	·	8.6	-0.5
O=C(CSc1nnnn1-c1ccccc1)Nc1ccc(N2CCOCC2)c(Cl)c1	22.7	10.5	·	·	·	·	-0.8	-3.4	·	7.8
CCN(CC)c1ccc(/C=N/NS(=O)(=O)c2ccc(CNC(C)=O)cc2)cc1	98.9*	-2.3	0.8	2.2	0.9	·	?	-1.6	0.6	-3.3
CCOc1ccc(C(=O)CCCC(=O)c2ccc(OCC)cc2)cc1	-1.7	-3.2	5.9	5.6	-1.5	i	1.0	·	-2.6	-12.0
The list goes on:
SMILES	ALR inh	T cruzi inh	rRNA inh HTS	rRNA inh HTS OD600	rRNA inh HTS RFP	FGF22 binding	RanGTP-Imp inh	Beta apoptosis	AF4-AF9 inh	Calb FLC
CN(CC1CCCN(CCc2ccc(F)cc2)C1)C(=O)CCC(N)=O (stereo not given)	·	3.3	15.1	9.6	0.2	i	-2.6	0.4	-1.5	-7.5
O=C(NCc1cccnc1)c1ccc2c(c1)C(=O)N(Cc1ccccc1)C2=O	-0.1	-11.6	-5.3	-1.5	0.5	i	-0.7	-0.3	2.3	-2.3
CC(C)CNC(=O)NC1(C(F)(F)F)Oc2ccccc2O1	0.0	1.7	9.2	5.3	1.7	i	-1.2	-4.1	1.1	-10.1
COc1ccccc1N1CCN(S(=O)(=O)c2c[nH]c(=O)[nH]c2=O)CC1	13.6	-26.8	20.6	11.3	4.2	i	-2.3	-0.2	-0.8	5.6
CCOC(=O)CC(=O)CSc1nc(-c2ccccc2)cc(-c2ccc(Cl)cc2)c1C#N	-6.9	40.0	·	·	·	·	-10.0	2.0	·	1.4
Cc1nc(NC(=O)COC(=O)C2CC3CCCC(C2)C3=O)c(Cl)cc1Cl (stereo not given)	-2.0	·	-0.1	-4.7	1.3	i	·	3.9	0.8	·
CCOC(=O)CN1C(=O)C(O)(C2CCc3ccccc3C2=O)c2ccccc21 (stereo not given)	-1.9	4.1	·	·	·	·	-2.6	-2.3	·	-21.3
O=C(N/N=C/c1ccc(N2CCOCC2)cc1)c1ccc(O)cc1	·	5.7	-51.6	-80.7	-30.5	i	-10.3	4.0	8.0	6.5
COc1cccc(C(=O)OCC(=O)c2ccc(Br)s2)c1	-6.8	-6.8	-9.6	-26.9	0.4	i	2.0	0.9	-23.5	-8.4
CN(C)S(=O)(=O)c1ccc(C(=O)NCC(=O)N/N=C/c2ccco2)cc1	-3.0	3.3	23.4	21.7	8.5	i	-0.7	-11.0	-1.9	-5.6
COc1ccccc1-n1cc(-c2ccccc2)[nH]c1=S	50.2	17.9	-1.4	-2.2	2.6	i	0.3	-2.9	1.2	4.9
Cc1cc(C(=O)Nc2ccc(N3CCCC3)c(Cl)c2)ccc1[N+](=O)[O-]	5.6	19.0	·	·	·	·	1.0	7.0	·	-5.8
CC1CCCCC12NC(=O)N(CC(=O)N1CCN(c3ncccn3)CC1)C2=O (stereo not given)	-0.8	·	2.9	3.9	1.5	i	·	6.3	-1.1	·
COc1ccc(CC(=O)NNC(=O)COc2ccc(Br)cc2C)cc1OC	-3.1	-15.5	·	·	·	·	-2.0	-5.8	·	-11.1
O=C1/C(=C/c2cccc(F)c2)SC(=S)N1NS(=O)(=O)c1ccccc1	3.1	-6.0	-7.4	-6.1	6.6	i	-0.1	-6.3	-0.8	24.1
COc1ccc(Cl)cc1NC(=O)c1nc2nc(C)cc(C(F)F)n2n1	-11.1	-6.1	-5.1	9.2	-4.4	i	-2.1	-2.4	4.7	3.1
Cc1ccc(S(=O)(=O)N2CCCC(C(=O)NCc3ccco3)C2)cc1Cl (stereo not given)	5.6	·	·	·	·	·	1.8	-3.8	·	-1.2
Nc1ncc(Br)cc1S(=O)(=O)NCCC(=O)NC1CCCCC1	2.5	-3.4	6.1	7.4	-3.2	i	-1.5	-4.1	0.7	-2.1
O=C(c1cnn(-c2cccc(F)c2)c1)c1ccccc1O	-1.9	-6.6	0.0	0.2	-7.0	i	-1.9	3.9	2.9	4.3
CC(CCc1ccccc1)NC(=O)c1ccco1 (stereo not given)	-4.5	3.3	·	·	·	·	7.3	-7.1	·	0.4
CN1C(=O)c2ccccc2C(C(=O)O)C1c1cccc([N+](=O)[O-])c1 (stereo not given)	-2.5	-10.8	5.8	8.6	2.3	i	4.4	0.2	-1.5	-6.8
O=C(N/N=C/C=C/c1ccc([N+](=O)[O-])cc1)C1COc2ccccc2O1 (stereo not given)	-5.6	-9.2	-11.4	11.8	-1.9	i	1.4	0.1	14.6	-46.7
CCOC(=O)c1nn(-c2ccccc2)c(C)c1C(C)=O	-21.2	-5.5	·	·	·	·	6.3	2.3	·	21.0
Cc1cccc(C)c1NC(=O)Cn1nnc(C(=O)Nc2ccc(F)cc2F)c1N	1.0	-23.1	7.2	6.6	-2.3	i	-0.2	-3.1	0.0	-8.6
CCN(CC(=O)NNC(=O)c1ccccc1)Cc1ccc(OC)c(F)c1	-4.9	·	5.7	4.8	-2.4	i	·	4.0	-2.8	·
Carrying on:
SMILES	ALR inh	T cruzi inh	rRNA inh HTS	rRNA inh HTS OD600	rRNA inh HTS RFP	FGF22 binding	RanGTP-Imp inh	Beta apoptosis	AF4-AF9 inh	Calb FLC
COc1cccc(/C=N/NC(=O)CCCC(=O)NC2CCCCC2)c1	-4.1	-21.9	·	·	·	·	-3.1	2.6	·	-5.2
O=C(NC1CCCCC1)C1CC(=O)N(c2ccccc2)C1 (stereo not given)	-2.9	-1.5	11.7	17.3	2.4	i	1.1	-11.3	-0.6	19.8
O=C(O)/C=C/C(=O)NCCc1ccccc1	·	-14.0	6.8	-0.4	1.4	i	0.5	1.3	-1.7	-11.7
O=c1[nH]c(=S)[nH]c2scc(-c3ccc(Br)cc3)c12	-6.4	-16.7	-0.4	-1.9	5.0	i	-1.9	1.9	-3.4	6.6
N#CC1=C(N)C(C#N)(C#N)C(c2cccnc2)C2CCCC=C12 (stereo not given)	-13.1	·	·	·	·	·	-30.9	-9.4	·	12.9
c1ccc(OCc2nn3c(C4CCCCC4)nnc3s2)cc1	-3.0	9.1	·	·	·	·	-1.5	0.5	·	-0.3
O=C(N/N=C/c1c(F)cccc1Cl)c1cc(C2CC2)[nH]n1	4.4	-8.1	3.2	1.4	-1.3	i	1.8	1.9	1.1	-6.9
O=C(CCNS(=O)(=O)c1cccs1)N1CCc2ccccc2C1	-7.9	·	·	·	·	·	-3.1	7.6	·	-19.9
O=C(NC(Cc1ccccc1)C(=O)O)/C(=C/c1ccco1)NC(=O)c1cccc(Br)c1 (stereo not given)	0.5	-13.5	·	·	·	·	?	-2.6	·	-1.2
N#C/C(C(=O)NCCc1ccccc1)=C1/N=C(NC(=O)c2cccs2)c2ccccc21	·	-3.8	15.0	9.2	23.3	i	-13.6	5.9	-1.0	-7.2
O=C(Nc1ccc(S(=O)(=O)Nc2ncccn2)cc1)c1cccnc1	-3.6	-4.0	·	·	·	i	2.3	-1.9	1.1	6.0
COc1cc(-c2cc(C(=O)O)c3c(OC)c(OC)c(OC)cc3n2)ccc1O	97.8*	-11.6	·	·	·	·	5.7	-3.4	·	?
Cc1ccc(-c2nc3ccccn3c2NCc2ccc3c(c2)OCO3)cc1	55.1	25.1	·	·	·	·	-4.4	·	·	-32.4

An excerpt; rates above refer to the full screens.
